Vif TR-FRET = HIV-1 Vif–A3G interaction blockers – biochemical, TR-FRET, GST-Vif 1-94, biotin-A3G peptide, dose response retest, primary screen (AID 1117319) | TR-FRET GST-Vif / biotin-A3G peptide binding; higher % means a stronger effect; test concentration not given here; strong numbers were not always called active | 260,000 tested, 0.57% active | one-dose inhibition, %; IC50 in µM for titrated hits;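 active = above the screen mean plus three standard deviations and confirmed in dose response; inconclusive = results disagree or hit not tested in dose response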;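 also: Vif residues 1-94 fused to GST binding biotinylated APOBEC3G peptide 110-148; 0% = full assay without inhibitor and 100% = GST in place of GST-Vif; retest series ran down from 100 µM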
Calb FLC = C. albicans growth modulation with fluconazole | growth inhibition, % (concentration not given with the values) | 300,000 tested, 0.57% active | AID 1979 | C. albicans CaCi-2 (fluconazole-resistant clinical isolate) + fluconazole, Alamar Blue growth, 48 h;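 active = most replicates above 75%; inconclusive = exactly half above 75%; inactive = most below 75%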;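 also: all wells also contain fluconazole at 8 µg/ml as a sub-toxic cotreatment; 0% = median of DMSO wells and 100% = median of geldanamycin control wells; wells of about 8 µL received 7.5 nL stock; the first replicate is given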
RanGTP-Impb inh = disruptors of Ran-importin-beta complex formation – biochemical, FRET, CFP-Ran, YFP-importin-beta, homogeneous, primary screen. 300,000 tested, 1.1% active. cell-free CFP-Ran/YFP-importin-beta FRET ratio. AID 2216. inhibition, % (test concentration not listed);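 active = most replicates above 15%; inconclusive = exactly half above 15%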;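 also: 0% = DMSO wells and 100% = Ran loaded with GDP instead of GTP; wells of about 40 µL received 100 nL stock; the first replicate is given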
ALR inh = human ALR oxidase inhibition via reduced H2O2 | P55789 | purified ALR, DTT oxidation, H2O2 HRP-luminol luminescence | inhibition, % (no concentration beside the values) | 290,000 tested, 3.8% active | AID 485317;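 active = mean and each replicate at 75% or more; inconclusive = only one of the two met; inactive = neither met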;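 also: stock transfer was 7.5 nL into about 7.5 µL; 0% = neutral wells and 100% = wells with inactivated enzyme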
Target sequence (P55789 whole entry, looked up): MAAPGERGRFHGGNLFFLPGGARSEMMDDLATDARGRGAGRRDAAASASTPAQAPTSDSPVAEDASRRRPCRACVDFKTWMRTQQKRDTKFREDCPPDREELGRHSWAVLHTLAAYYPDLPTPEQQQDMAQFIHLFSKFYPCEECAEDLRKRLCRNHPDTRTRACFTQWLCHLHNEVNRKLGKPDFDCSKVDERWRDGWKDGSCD
B2AR ag = activates human beta-2 adrenergic receptor causing internalization; P07550; Am2.2-beta2AR cells, FAP receptor internalization, flow cytometry; reference of the scale not given here; response, % (concentration not given with the values); 340,000 tested, 0.43% active; AID 504454;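 active = response above a set limit, near 3 SD of response in nonfluorescent compounds, cut at about 42% in these data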;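 also: stock transfer was 100 nL into about 11 µL; a reference agonist was the positive control; negative values mostly stem from fluorescent compounds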
Target sequence (P07550 whole entry, looked up): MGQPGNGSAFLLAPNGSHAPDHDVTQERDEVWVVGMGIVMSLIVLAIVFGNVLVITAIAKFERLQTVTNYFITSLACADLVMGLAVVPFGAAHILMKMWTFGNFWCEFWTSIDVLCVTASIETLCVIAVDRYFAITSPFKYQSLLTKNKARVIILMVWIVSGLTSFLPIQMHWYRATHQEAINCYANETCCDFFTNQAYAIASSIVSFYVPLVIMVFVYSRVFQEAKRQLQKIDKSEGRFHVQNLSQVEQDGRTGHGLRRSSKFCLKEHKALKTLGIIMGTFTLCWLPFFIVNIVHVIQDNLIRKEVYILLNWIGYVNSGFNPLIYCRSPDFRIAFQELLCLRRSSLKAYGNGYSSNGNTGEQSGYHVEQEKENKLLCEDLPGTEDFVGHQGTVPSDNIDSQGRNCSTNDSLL
LANA-H2A inh = blocks KSHV LANA binding to histone H2A/H2B | cell-free LANA-H2A/H2B peptide, fluorescence polarization | 320,000 tested, 0.6% active | Q9QR71 | inhibition, % (no concentration beside the values); in the data active = inhibition mostly above about 10%, no sharp cut-off; inactive = mostly below about 6.7%;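 also: stock transfer was 7.5 nL into about 10 µL; 0% = median of vehicle wells and 100% = median of positive control wells; one replicate is shown; the record names a cut of 25% in any replicate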
HNF4A DNA FP = change in binding of human HNF4 alpha to DNA. 360,000 tested, 0.3% active. HNF4a-FITC DNA binding, fluorescence polarization, 1 h. AID 1224865. activity change, % at 10 µM. P41235; in the data active = activity change above about 30%, passing the limit was not always enough;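 also: controls were the assay level and a saturating level of protein; the project sought stronger binding though the title names inhibitors; some compounds called inactive have numbers as strong as hits; positive values seem to mean higher polarization but the record does not say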
Target sequence (P41235 whole entry, looked up): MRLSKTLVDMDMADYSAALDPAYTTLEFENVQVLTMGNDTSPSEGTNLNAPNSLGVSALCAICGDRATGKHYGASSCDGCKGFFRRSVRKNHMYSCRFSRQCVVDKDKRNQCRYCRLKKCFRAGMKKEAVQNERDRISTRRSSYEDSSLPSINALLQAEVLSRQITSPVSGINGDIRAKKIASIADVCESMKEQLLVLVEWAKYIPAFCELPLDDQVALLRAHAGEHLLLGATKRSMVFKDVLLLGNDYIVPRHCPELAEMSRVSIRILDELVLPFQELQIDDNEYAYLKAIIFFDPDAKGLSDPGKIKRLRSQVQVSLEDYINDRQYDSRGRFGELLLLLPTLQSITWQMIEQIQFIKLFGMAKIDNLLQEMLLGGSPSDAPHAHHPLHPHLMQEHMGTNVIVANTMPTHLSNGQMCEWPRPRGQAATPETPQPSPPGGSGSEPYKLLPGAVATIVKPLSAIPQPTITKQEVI
* hit, by the source's call; ? = inconclusive; nt = no result given; & = joins results of further samples.

SMILES	Vif TR-FRET	Calb FLC	RanGTP-Impb inh	ALR inh	B2AR ag	LANA-H2A inh	HNF4A DNA FP
CCOc1ccccc1NC(=O)C(Sc1nnc2ccccn12)c1ccccc1 (centres undefined)	18%	24	-1.1	-3	22	2.3	3.3
C=CCNc1oc(C2CCCC2)nc1C#N	nt	nt	nt	6	2	-1.3	-0.8
O=C(Nc1ccccn1)C(NS(=O)(=O)c1cccc2nsnc12)c1ccccc1 (centres undefined)	?	-6	-3.1	-33	-2	0.0	-1.3
Cc1ccccc1C(=O)Nc1ccc(N2CCN(C)CC2)nc1	4%	-31	-1.8	1	11	-5.7	-0.8
Cc1ccc(S(=O)(=O)n2nccc2-c2c(-c3ccccc3)noc2C)cc1	-8%	7	0.5	nt	-7	1.5	-4.5
COc1cccc(CNc2nc3nc(C)c(Cl)c(C)n3n2)c1	-1%	-19	2.6	-7	-12	11	0.2
COc1cc([N+](=O)[O-])ccc1NC(=O)C1CCCN(S(C)(=O)=O)C1 (centres undefined)	nt	nt	nt	-4	-8	0.5	-7.4
Cc1ccc(CN(C)C(=O)c2cccc(S(=O)(=O)N3CCc4ccccc4C3)c2)o1	-4%	nt	nt	3	-2	nt	-0.7
Cc1ccc(C)c(NC(=O)c2ccc(N(C)S(C)(=O)=O)cc2)c1	2%	-5	-0.9	-5	-1	2.6	-3.4
O=C(NCc1cccs1)C1CCC(CNS(=O)(=O)c2ccccc2)CC1 (centres undefined)	2%	-13	-3.0	-15	4	-1.3	1.2
Cc1ccc(CN2C(=O)CCC2C(=O)NCCN(CC(C)C)CC(C)C)cc1 (centres undefined)	17%	-2	-2.3	-7	3	-0.4	0.4
O=C(Nc1nc2c(F)cccc2s1)c1ccco1	nt	3	0.1	-1	-3	-0.2	4.9
c1ccc(OCc2nc(-c3cccs3)no2)cc1	32%	-10	6.1	-11	6	-2.4	0.8
C=CCSc1nc(Oc2ccccc2)c2sccc2n1	30%	-1	8.2	2	-5	-0.7	-3.3
COc1cc(Br)cc(/C=N/c2ncn[nH]2)c1O	-1%	?	-5.6	3	5	6.8	-4.2
CSc1ccc(S(=O)(=O)N2CCN(Cc3ccc4c(c3)OCO4)CC2)cc1	1%	-2	-1.1	nt	-5	-2.3	0.9
OC12CC3C[C@H](C1)C(N1CCOCC1)[C@@H](C3)C2 (some centres undefined)	nt	-3	2.3	nt	5	1.8	4.7
CCO[C@@H]1OC(C(=O)O)=C[C@H](C2CC2)[C@H]1CCCO	-3%	-3	5.5	-2	7	-2.6	3.5
Cc1nn(C2CCS(=O)(=O)C2)c(C)c1CN(C)C(=O)c1ccc(S(=O)(=O)N(C)C)cc1 (centres undefined)	nt	nt	nt	-1	-6	0.9	-2.2
Cc1cc(C)c(NC(=O)NC(=O)c2ccc(F)cc2)c(C)n1	-1%	-1	-1.5	-1	6	-7.3	1.4

Single entries from the entries so far:
B2AR ag result of C=CCSc1nc(Oc2ccccc2)c2sccc2n1 → -5
Vif TR-FRET result of Cc1ccc(CN(C)C(=O)c2cccc(S(=O)(=O)N3CCc4ccccc4C3)c2)o1 → -4%
HNF4A DNA FP result of CSc1ccc(S(=O)(=O)N2CCN(Cc3ccc4c(c3)OCO4)CC2)cc1 → 0.9

Compounds from the list above that contain a furan ring, fused or not (2):
SMILES	Vif TR-FRET	Calb FLC	RanGTP-Impb inh	ALR inh	B2AR ag	LANA-H2A inh	HNF4A DNA FP
Cc1ccc(CN(C)C(=O)c2cccc(S(=O)(=O)N3CCc4ccccc4C3)c2)o1	-4%	nt	nt	3	-2	nt	-0.7
O=C(Nc1nc2c(F)cccc2s1)c1ccco1	nt	3	0.1	-1	-3	-0.2	4.9

The list goes on:
SMILES	Vif TR-FRET	Calb FLC	RanGTP-Impb inh	ALR inh	B2AR ag	LANA-H2A inh	HNF4A DNA FP
CCOc1ccc(NC(=O)CC2Nc3ccccc3NC2=O)cc1 (centres undefined)	5%	37	5.1	2	-3	1.6	-3.0
Cc1csc(Sc2ccc([N+](=O)[O-])cc2C(=O)OCC(=O)NC(=O)NC(C)(C)C)n1	-6%	-4	3.6	nt	-1	6.1	1.6
Cc1ccc(CN(C(=O)c2ccc(Cl)c([N+](=O)[O-])c2)C2CCS(=O)(=O)C2)o1 (centres undefined)	-6%	21	4.4	-6	11	3.5	1.5
O=C(CC(Sc1n[nH]c(-c2ccccc2)n1)c1ccccc1)NCc1ccccc1 (centres undefined)	9%	-9	-1.7	-3	12	-2.2	-0.8
CCN(C(=O)Cn1cnc2c(nc3n2CCCCC3)c1=O)c1cccc(Cl)c1	23%	3	3.1	-4	4	3.6	2.2
COc1ccc(/C=C(/NC(=O)c2ccccc2)C(=O)N/N=C/c2cccs2)cc1OC	5%	-41	-0.1	nt	-2	-1.2	-2.2
CCOc1ccc2c(c1)n(CO)c(=S)n2CO	-3%	35	nt	100*	2	-4.7	1.0
COC(=O)c1ccc(N2C(=O)CC(Sc3n[nH]c(C)n3)C2=O)cc1 (centres undefined)	15%	5	0.7	nt	0	-2.1	-0.9
CCOC(=O)c1sc(NC(=O)c2cc3ccccc3o2)nc1C	nt	1	-4.6	nt	3	-0.8	2.4
Cc1nnc(SCC(=O)O)s1	4%	-12	-0.7	-3	-5	3.9	0.6
CCOC(=O)N1CCC(NC(=O)CCc2c(C)nc3c(c(C)nn3C(C)(C)C)c2C)CC1	-10%	4	-11	nt	-10	2.0	1.1
Cc1ccc(SCC(=O)Nc2cccc(C)c2)cc1	nt	-25	3.1	nt	18	-0.5	-0.1
O=C(CCn1c(=O)oc2ccccc21)Nc1ccccc1	4%	2	3.4	28	-1	4.4	-3.9
CCC(CC)c1nnc(NC(=O)c2nc3nc(C)cc(C)n3n2)s1	0%	2	3.1	5	-13	1.9	-4.1
Cc1noc(/C=C/c2nn(C)cc2Cl)c1[N+](=O)[O-]	-1%	2	-1.7	7	0	3.0	-0.8
Cc1ccc(-n2c(SCC(=O)Nc3ncc(Cl)cc3Cl)nc3ccccc32)cc1	nt	2	-6.5	nt	-21	-3.0	4.1
O=S1(=O)N=C(N2CCCc3ccccc32)c2ccccc21	3%	3	?	8	1	-2.5	9.2
COc1cccc(NC(=O)CCNS(=O)(=O)c2ccc3c(c2)oc(=O)n3C)c1	4%	-6	-0.4	-4	6	-2.2	0.4
Cc1nnc2sc(SCC(=O)N3CCCCC3)nn2c1=O	0%	1	?	72	-9	3.7	5.2
N#CC1=C(N)Oc2n[nH]c(-c3cccs3)c2C1c1cccnc1 (centres undefined)	1%	14	-1.4	-22	-10	0.5	0.0
CC(C)NC(=S)n1cc(C(=O)c2cc(Cl)cc(Cl)c2O)cn1	nt	1	21*	4	6	-1.5	0.0
CC(=O)C[C@H](O)CC(=O)[C@@H]1OC(=O)CCCCC/C=C/Cc2ccccc21	nt	nt	nt	-6	0	-3.9	-2.8
COc1ccc(N2CCN(C(=O)COc3ccccc3)CC2)cc1	77µM*	6	4.2	47	nt	-1.8	nt
CCN1C(=O)/C(=C2/Sc3ccccc3N2CCCS(=O)(=O)O)SC1=S	0%	-4&1	56*	19	-5&-8	-1.1	9.6&7.7
CCCCCNC(=O)C1CC(=O)OC12CCCCC2 (centres undefined)	2%	29	-1.1	nt	6	-7.8	5.3
CC(C)(C)n1nnnc1C(c1ccc2ncccc2c1)N1CCC(O)CC1 (centres undefined)	-3%	4	3.0	-8	9	3.0	2.5
Cc1nonc1C1CCCN1C(=O)c1cc(COc2ccc(F)cc2Cl)on1 (centres undefined)	-5%	1	?	2	-5	7.1	2.4
O=C1C=C(N2CCN(C3=CC(=O)CCC3)CC2)CCC1	22%	-2	-0.7	-20	-4	0.5	4.5
Cc1ccnc(NC(=O)c2ccc3c(c2)S(=O)(=O)c2ccccc2C3=O)c1	-2%	0	-7.1	nt	-6	5.7	1.0
CCOC(=O)c1nn(-c2ccc(F)cc2)c(-c2ccccc2)c1C(=O)c1ccccc1	17%	23	2.9	-2	8	-2.7	2.3

Quoted at random: 4 compounds from above
SMILES	Vif TR-FRET	Calb FLC	RanGTP-Impb inh	ALR inh	B2AR ag	LANA-H2A inh	HNF4A DNA FP
Cc1ccc(CN2C(=O)CCC2C(=O)NCCN(CC(C)C)CC(C)C)cc1 (centres undefined)	17%	-2	-2.3	-7	3	-0.4	0.4
COc1cccc(CNc2nc3nc(C)c(Cl)c(C)n3n2)c1	-1%	-19	2.6	-7	-12	11	0.2
N#CC1=C(N)Oc2n[nH]c(-c3cccs3)c2C1c1cccnc1 (centres undefined)	1%	14	-1.4	-22	-10	0.5	0.0
O=C(Nc1nc2c(F)cccc2s1)c1ccco1	nt	3	0.1	-1	-3	-0.2	4.9

(list continues)
SMILES	Vif TR-FRET	Calb FLC	RanGTP-Impb inh	ALR inh	B2AR ag	LANA-H2A inh	HNF4A DNA FP
CCCCCc1nc2ccccc2c(=O)n1N	-2%	0	-2.5	18	-13	1.4	-0.3
CCC(=O)c1ccc(OCC(=O)OCC(=O)NCC2CCCO2)cc1 (centres undefined)	13%	-12	5.2	-5	17	-3.7	3.0
Cc1oc2c(CN3CCOCC3)c(O)ccc2c(=O)c1-c1ccccc1	17%	1	-2.5	1	-20	-8.7	-0.4
O=C(O)c1ccccc1-c1ccccc1C(=O)NCCc1ccccc1	nt	12	-0.8	-23	6	-6.8	-0.5
O=C(CSCCOc1ccccc1)NCc1ccncc1	-6%	-24	6.4	-2	2	-0.3	2.6
Cc1cc2nc3n(c2cc1C)CC1CC(C(=O)NCCC(C)C)N(C)C31 (centres undefined)	nt	-2	-1.3	-6	0	-8.1	4.2
CC(C)(C)NC(=O)NC(=O)COC(=O)c1c(F)cccc1Cl	-14%	-28	-2.9	-2	4	-0.8	0.8
CNC(=O)COC(=O)c1ccc(Cl)c(S(N)(=O)=O)c1	nt	7	8.2	-14	2	-7.0	-7.2
CCC(C)CNC(=O)c1cccc(OC2CCN(CC(C)(C)C)CC2)c1 (centres undefined)	1%	-5	13	nt	5	2.7	-2.1
O=C1/C(=C/c2cccs2)SC(=S)N1CCC(=O)N1CCCCC1CCO (centres undefined)	nt	7	-3.9	-3	2	3.3	1.7
Cc1c(CC(=O)Nc2ccc(Cl)cc2)sc2ccc(Cl)cc12	nt	-5	-0.3	-4	-1	-0.7	-5.3
COc1ccc(CC(=O)Nc2cccc(SC)c2)cc1	-1%	-25	4.3	nt	2	nt	-4.5
COc1ccc(CCNC(=O)c2cc3c(C)nccc3[nH]c2=O)cc1OC	1%	4	-1.4	-15	-1	3.4	0.2
CCC(CC)c1nc(C#N)c(NC(C)c2ccccc2)o1 (centres undefined)	-5%	?	-0.2	17	1	-0.8	0.0
O=C(NCc1ccccn1)c1cccc(S(=O)(=O)Nc2ccc(F)cc2)c1	13%	nt	nt	nt	4	nt	0.1
O=c1cc(C(F)(F)F)nc(SC/C=C/c2ccccc2)[nH]1	-2%	-1	0.1	78*	3	0.4	-1.0
CCOC(=O)c1c(NC(=O)C2C3CCC(O3)C2C(=O)O)sc2c1CCC(CC)C2 (centres undefined)	nt	-17	-6.5	47	-6	-1.7	-1.4
COCCNC(=O)C(c1ccc(Cl)cc1)N(Cc1ccco1)C(=O)CCC(=O)Nc1ccccn1 (centres undefined)	0%	10	6.7	-3	5	1.4	-0.3
CC(C)CCN(CC(=O)NC(C)(C)C)C(=O)C(=O)Nc1ccc2c(c1)OCCO2	-7%	-29	0.1	-1	-1	2.9	0.4
COc1ccc(CNC(=O)CN(Cc2ccco2)C(=O)CNS(=O)(=O)c2ccccc2)cc1	2%	-1	1.8	-3	-6	-0.3	1.7

Screens (PubChem BioAssay)
